From PubChem
Mtb H37Rv: Mycobacterium tuberculosis H37Rv growth inhibition, cell based, confirmatory dose response (AID 1949). M. tuberculosis H37Rv growth inhibition. 100,000 compounds, 1.6% hits. inhibition, % at 10 µg/mL; hits with a dose series show IC50 in µg/mL. most inactive calls were filed without a number and no value below 0 was filed;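 active = confirmed in a dose series; inconclusive = about 50% or more but not retested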;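 also: bacteria grown 7 days with compound before Alamar blue readout; 0% = untreated bacteria and 100% = reference antibiotic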
* hit, by the source's call; i = inactive; ? = inconclusive. Some of the compounds tested. The share of hits here may be higher or lower than overall.

Preview:
SMILES | Mtb H37Rv
O=C(NCc1ccncc1)C1CCCN(S(=O)(=O)c2ccc(Cl)cc2)C1 (stereo not drawn) | 1%
CC1CCN(C(=O)c2ccc(S(=O)(=O)N(C)C)cc2)C(C)C1 (stereo not drawn) | i
O=C(NCCC1=CCCCC1)c1nc2ccccc2s1 | 12%
Cc1ccc(C(=O)Nc2ccc(-c3nc4cc(C)cc(C)c4o3)cc2)c(C)c1 | i
COc1cc(C(=O)Nc2scc(-c3ccc(Br)cc3)c2C(=O)O)cc(OC)c1OC | i
CC1CCN(S(=O)C23CC4CC(CC(C4)C2)C3)CC1 (stereo not drawn) | i
Cc1cc(C)c(NC(=O)CSc2nnc(SCc3ccccc3)s2)c(C)c1 | 7%
Cc1cccc(NC(=O)c2cc([N+](=O)[O-])ccc2NCc2ccccc2)c1 | 0%
O=C1C2C3C=CC(C4CC34)C2C(=O)N1CC1CCCO1 (stereo not drawn) | i
CCCCC(=O)NC(c1cccs1)c1cc(Cl)c2cccnc2c1O (stereo not drawn) | i
COC(=O)c1ccc(-n2c(CCC(=O)O)ccc2-c2ccc(Br)cc2)cc1 | i
O=C(NN1C(=O)C2C3C=CC(C4CC34)C2C1=O)c1ccc(Cl)c(Cl)c1 (stereo not drawn) | 5%
O=C(COc1ccc2ccc(=O)oc2c1)NC1CCCC1 | i
NC(=O)COc1c(-c2ccccc2)oc2ccccc2c1=O | i
CCCSc1nc(=S)n(Cc2ccccc2)c(C)c1C(C)=O | i
COc1ccc(NC(=O)c2sc3nc4c(cc3c2N)CCCC4)cc1 | i
Nc1cc(S(=O)(=O)Nc2ccc(SC(F)F)cc2)ccc1Cl | 6%
CCc1cc(Br)ccc1NC(=O)CCN1C(=O)C2C3CCC(C3)C2C1=O (stereo not drawn) | i

The whole of this part, previewed entries included:
SMILES | Mtb H37Rv
O=C(NCc1ccncc1)C1CCCN(S(=O)(=O)c2ccc(Cl)cc2)C1 (stereo not drawn) | 1%
CC1CCN(C(=O)c2ccc(S(=O)(=O)N(C)C)cc2)C(C)C1 (stereo not drawn) | i
O=C(NCCC1=CCCCC1)c1nc2ccccc2s1 | 12%
Cc1ccc(C(=O)Nc2ccc(-c3nc4cc(C)cc(C)c4o3)cc2)c(C)c1 | i
COc1cc(C(=O)Nc2scc(-c3ccc(Br)cc3)c2C(=O)O)cc(OC)c1OC | i
CC1CCN(S(=O)C23CC4CC(CC(C4)C2)C3)CC1 (stereo not drawn) | i
Cc1cc(C)c(NC(=O)CSc2nnc(SCc3ccccc3)s2)c(C)c1 | 7%
Cc1cccc(NC(=O)c2cc([N+](=O)[O-])ccc2NCc2ccccc2)c1 | 0%
O=C1C2C3C=CC(C4CC34)C2C(=O)N1CC1CCCO1 (stereo not drawn) | i
CCCCC(=O)NC(c1cccs1)c1cc(Cl)c2cccnc2c1O (stereo not drawn) | i
COC(=O)c1ccc(-n2c(CCC(=O)O)ccc2-c2ccc(Br)cc2)cc1 | i
O=C(NN1C(=O)C2C3C=CC(C4CC34)C2C1=O)c1ccc(Cl)c(Cl)c1 (stereo not drawn) | 5%
O=C(COc1ccc2ccc(=O)oc2c1)NC1CCCC1 | i
NC(=O)COc1c(-c2ccccc2)oc2ccccc2c1=O | i
CCCSc1nc(=S)n(Cc2ccccc2)c(C)c1C(C)=O | i
COc1ccc(NC(=O)c2sc3nc4c(cc3c2N)CCCC4)cc1 | i
Nc1cc(S(=O)(=O)Nc2ccc(SC(F)F)cc2)ccc1Cl | 6%
CCc1cc(Br)ccc1NC(=O)CCN1C(=O)C2C3CCC(C3)C2C1=O (stereo not drawn) | i
Cc1cc2ccccc2n2c(SCC(=O)Nc3ccc(F)cc3)nnc12 | i
COc1ccc(S(=O)(=O)N2CC(C)OC(C)C2)cc1C (stereo not drawn) | i
COC(=O)Cc1ccc(NC(=S)NN2CCOCC2)cc1 | i
CCOC(=O)c1ccc(NC(=S)N2CCN(c3ccc(F)cc3)CC2)cc1 | i
CCCC(=O)Nc1ccccc1NC(=O)c1ccc(OCC)c(OCC)c1 | i
CCOc1ccc(C(=O)Nc2cc(OC)cc(OC)c2)cc1 | i
CCn1cc(C(=O)c2cccs2)c2ccccc21 | 38%
CCc1ccc(NC(=O)CSCC(=O)Nc2ccc3ccccc3c2)cc1 | i
CC(C)N1CCc2c(sc(N)c2C(N)=O)C1 | i
O=C(Nc1cc(Cl)ccc1Cl)c1ccc(Cl)cc1Cl | i
CCCCNS(=O)(=O)c1ccc(NCc2ccccc2)cc1 | 1%
Cc1ccc(NC(=O)C2CCN(S(=O)(=O)c3ccccc3)CC2)cc1Cl | i
Cc1cc(C)n(-c2cc(N3CCN(C(=O)c4cccc(OC(C)C)c4)CC3)ccc2[N+](=O)[O-])n1 | 0%
CCCc1cc(=O)oc2cc(OCc3cc([N+](=O)[O-])ccc3OC)c(Cl)cc12 | i
CCOc1ccc(Nc2ncnc(N)c2[N+](=O)[O-])cc1 | 5%
C=C(C)COc1ccc2c(C)c(CCC(=O)O)c(=O)oc2c1C | i
CCOc1cc(S(=O)(=O)N2CCCCC2)ccc1F | i
CC(=O)c1ccc(NC(=S)N2CCc3ccccc3C2)cc1 | i
O=C(NC12CC3CC(CC(C3)C1)C2)c1cccc(Cl)c1Cl | i
Cc1cc(C)nc(SCC(=O)Nc2sc3c(c2C(N)=O)CCCCCC3)n1 | 3%
COC(=O)c1ccc(NC(=O)NC2CCCCC2)cc1 | 1%
Cc1cccc2c(N=NC(=O)COc3ccc(Cl)cc3Cl)c(O)n(C)c12 | i
COC(=O)c1c(NC(=S)Nc2ccccc2-c2ccccc2)sc(C(=O)N(C)C)c1C | 5%
O=C(Nc1ccc(S(=O)(=O)N2CCCc3ccccc32)cc1)c1sc2ccccc2c1Cl | i
CCOC(=O)c1ccccc1NC(=O)CN(c1ccc(F)cc1)S(C)(=O)=O | i
N#Cc1nn(-c2ccccc2)c(N)c1C#N | i
O=C(Nc1ccccc1C(=O)NC12CC3CC(CC(C3)C1)C2)c1ccccc1Br | 9%
CC(C)CNC(=S)Nc1ccc(Cl)cc1Cl | i
CCn1c(SCC(=O)Nc2cccc(Cl)c2)nnc1-c1ccco1 | i
CCOc1cccc2cc(C(=O)Nc3ccccc3-c3ccccc3)c(=O)oc12 | i
CCN(CC)S(=O)(=O)c1ccc(NS(=O)(=O)c2ccc3ccccc3c2)cc1 | i
O=C(CCC(=O)Nc1ccccc1Cl)NNC(=O)Nc1ccc(F)cc1F | i
O=C(CSc1nc2scc(-c3ccccc3)c2c(=O)[nH]1)N1CCOCC1 | i
COc1ccc(C(=O)Nc2nnc(Cc3ccccc3)s2)cc1OC | 1%
CCOc1ccc(S(=O)(=O)N2CCCC(C)C2)c2ccccc12 (stereo not drawn) | 1%
CN(C1CCCCC1)S(=O)(=O)c1ccc(NC(=S)NC(=O)c2cccs2)cc1 | 0%
COc1ccc(Cl)cc1NC(=O)C(C)N(c1ccc(Oc2ccccc2)cc1)S(C)(=O)=O (stereo not drawn) | i
COc1ccccc1NC(=O)CCSc1nnc(-c2ccco2)o1 | 2%
Cn1nnc2cc(NC(=O)N3CCN(c4ccccn4)CC3)ccc21 | i
CC(=O)Nc1sc2c(c1C(=O)N1CCOCC1)CCCCC2 | i
C=CCOc1ccc(Cl)cc1CNCc1cccnc1 | i
NC(=O)c1ccccc1NC(=O)c1cccc(C(=O)Nc2ccccc2C(N)=O)n1 | 1%

Carrying on:
SMILES | Mtb H37Rv
CCOC(=O)C1=C(C)N=C2SCCC(=O)N2C1c1ccc(Cl)cc1 (stereo not drawn) | i
CNC(=O)CCSc1ccc(Cl)cc1 | 1%
O=C1CC(Nc2ccc(Cc3ccncc3)cc2)C(=O)N1c1ccc(F)c(Cl)c1 (stereo not drawn) | i
CCOc1ccc(CNCc2ccc(F)cc2)cc1 | i
O=C(CCN1C(=O)c2ccccc2C1=O)N(CCO)Cc1ccccc1 | i
O=C(Cc1cccc2ccccc12)Nc1ccc(Cl)c(C(=O)O)c1 | 1%
COc1ccc(C2(CNC(=O)c3ccc(Cl)cc3Cl)CCCCC2)cc1 | 2%
CCCCc1cc(=O)oc2cc(C)cc(OCC(=O)c3cccc([N+](=O)[O-])c3)c12 | i
CCOc1ccc(C(=O)Nc2nc(-c3ccccc3)c(C)s2)cc1 | 2%
Cc1cc2c(C)nc3ccc(C(=O)O)cc3c2o1 | i
O=S(CCSc1nc2ccccc2s1)Cc1ccccc1 (stereo not drawn) | ?
CC(=O)C(C)Oc1ccc2c3c(c(=O)oc2c1)CCCCC3 (stereo not drawn) | 1%
Cc1cc(C)nc(NC2=NCCN2C(=O)Nc2ccc(Cl)c(Cl)c2)n1 | i
O=C(CCS(=O)(=O)Cc1ccccc1)N1CCN(C(=O)c2ccco2)CC1 | i
COc1cccc(CN2CCC(C(=O)N3CCN(c4ccccc4F)CC3)CC2)c1O | i
Cc1cc(OCC(=O)Nc2ccccc2C(C)C)cc(C)c1Br | i
CC12COC3(C(=O)N4CCCCCC4)CC1CCC32C (stereo not drawn) | i
Cc1ccc(/C(N)=N/OC(=O)CCC2CCCCC2)cc1 | i
CC(=O)Oc1ccc(C(=O)Nc2ccc(Br)cc2F)cc1 | i
CC1CN(c2oc(-c3ccccc3F)nc2C#N)CC(C)O1 (stereo not drawn) | i
COc1ccccc1N1CCN(C2CCN(Cc3ccco3)CC2)CC1 | i
O=C(Nc1cccc(C(=O)n2nnc3ccccc32)c1)c1ccccc1 | i
O=C(Cc1ccc(Cl)cc1)Nc1ccc(Cl)cc1F | i
O=C(O)CSc1nnc(-c2ccccc2)n1-c1ccccc1 | i
N#C/C(=C\C=C\c1ccco1)c1nc2c(s1)CCCC2 | 9.3µg/mL*
COc1cc(C(=O)NC(=S)Nc2ccc(Cl)c(-c3nc4ccccc4s3)c2)cc(OC)c1OC | 3%
O=C(O)c1ccc(S(=O)(=O)NCc2cccnc2)cc1 | i
COc1ccc(NC(=O)N2CCC3(CC2)OCCO3)cc1OC | i
O=C(Cc1ccccc1)Nn1c(O)c(C2=c3ccccc3=NC2=O)sc1=S | 7%
COc1ccc(NC(=O)c2ccc(N(C)S(=O)(=O)c3ccc(C)cc3)cc2)cc1 | i
CC(=O)Nc1ccc(C(=O)OCc2ccccc2F)cc1 | 1%
CC(=O)Nc1c(C)ccc(NC(=O)c2cc(F)c(F)cc2Cl)c1C | i
COc1ccc(CC(=O)NC(=S)N2CCCc3ccccc32)cc1 | i
CCCCOc1ccccc1NC(=O)CCN1C(=O)c2ccccc2C1=O | i
O=C1CC(N2CCN(Cc3ccc4c(c3)OCO4)CC2)C(=O)N1c1cccc2ccccc12 (stereo not drawn) | i
CCOc1ccc(N(CC(=O)N2CCCCC2)S(=O)(=O)c2ccc(Cl)cc2)cc1 | i
O=C(CC1(O)C(=O)N(Cc2ccccc2)c2ccc(Cl)cc21)c1ccncc1 (stereo not drawn) | 0%
COc1cc(CNC(C)c2ccccc2)ccc1OCC(C)C (stereo not drawn) | i
O=C(CN1C(=O)c2cccc3cccc1c23)Nc1ccc(F)c(F)c1 | i
C=CCn1c(SCc2ccccc2)nnc1-c1cccnc1 | i
COC(=O)c1cccc(NC(=O)c2ccc(NC(C)=O)cc2)c1 | i
C=CCSc1nc(N2CCOCC2)c2c(c1C#N)CC(C)(C)SC2 | i
CNCc1cc(Cl)ccc1OCc1ccc(F)cc1 | 1%
Cc1ccc(N2CC(O)=C(c3nc4ccccc4s3)C2=N)cc1Cl | 2%
O=C(NC1CCS(=O)(=O)C1)c1ccc(Br)o1 (stereo not drawn) | i
Cc1cc(=O)[nH]c(Nc2ccc(C(=O)OC(C)C)cc2)n1 | 3%
Cc1cccnc1NC(=S)Nc1ccc(F)cc1F | i
O=C(Nc1ccc2c(c1)OCO2)c1cc2nc(C3CC3)cc(C(F)(F)F)n2n1 | i
CCCCc1nc(SCC(=O)Nc2nc3ccccc3s2)n[nH]1 | i
COc1ccc(CCNC(=O)CSCc2n[nH]c(=O)[nH]2)cc1OC | i
O=C(CC12CC3CC(CC(C3)C1)C2)Nc1ccc2ccccc2c1 | <0.1µg/mL*
CC(Oc1ccc(Cl)c(Cl)c1)C(=O)NNC(=S)NCc1ccccc1 (stereo not drawn) | i
COc1ccccc1NC(=O)CCc1ccc(S(=O)(=O)NC(C)C)cc1 | i
O=S(=O)(c1ccc(O)cc1)c1ccc(OCc2ccccc2)cc1 | 0%
COc1ccc(S(=O)(=O)n2cc(-c3ccc([N+](=O)[O-])cc3)c(N)n2)c(OC)c1 | 39%
C/C(=N/Nc1ccc([N+](=O)[O-])cc1)c1ccc2c(c1)C1C=CCC1C(c1cccc([N+](=O)[O-])c1)N2 (stereo not drawn) | 0%
Cc1ccc(Nc2nc(N)nc(CC#N)n2)cc1 | ?
C=CCc1ccccc1OCCOCCN1CCCCC1 | i
COc1cc(/C=C(\C#N)c2nc3ccccc3c(=O)[nH]2)ccc1OCc1ccc(Cl)cc1 | i
O=c1cccc2n1CC1CC2CN(c2nc(NCCC3=CCCCC3)nc(N3CCOCC3)n2)C1 (stereo not drawn) | i

(continued)
SMILES | Mtb H37Rv
COC(=O)c1ccccc1NC(=O)Nc1ccc(Cl)cc1 | i
Cc1c(N(C(=O)c2ccc(Br)cc2)C(C)C)c(=O)n(-c2ccccc2)n1C | i
COc1ccc(NC(=O)c2ccco2)c(NC(=O)CC(C)C)c1 | 6%
COC(=O)c1ccccc1NC(=O)C1CC(=O)N(c2cccc(Cl)c2C)C1 (stereo not drawn) | i
CC(=O)c1c(C)nn(-c2ccccc2)c1C | i
Nc1nc(-c2cccnc2)nn1C(=O)c1ccc(F)cc1 | i
CSc1ccc(Cl)c(C(=O)N2CCCc3ccccc32)c1 | i
CC(C)COc1ccc(C=O)c2ccccc12 | i
Cc1ccc(N2CCN(CCNC(=S)Nc3cccc(C)c3C)CC2)c(Cl)c1 | 8.3µg/mL*
CCOc1ccccc1NC(=O)CCC1CCCC1 | i
COc1cc(OC)cc(C(=O)Nc2ccc3oc(=O)ccc3c2)c1 | i
Cc1nn(-c2ccccc2)c(C)c1CC(=O)NCCc1ccccc1 | i
Cc1ccc(C)c(N(CC(=O)N2CCN(Cc3ccccc3)CC2)S(C)(=O)=O)c1 | 2%
CCOc1ccc(NC(=O)CSc2nnc(Cn3cnc4ccccc43)n2-c2ccccc2)cc1 | i
CC(C)CC(=O)Nc1ccc(I)cn1 | i
COC(=O)c1cc(OC)c(OC)cc1NC(=O)Cn1nnc(-c2ccccc2Cl)n1 | i
